LT uptake inh – inhibitors of anthrax lethal toxin internalization; Cells, anthrax lethal toxin internalization, FRET ratio (460/530); Potency, µM (titrated, usually from 40 µM), inactives show top-dose activity change, negative = inhibition, usual class: inhibitors; 0.67% of 70,000 active; AID 912; active = well fitted falling ratio curve with the 530 nm signal flat; inconclusive = other ratio curves, or a change in one channel alone; inactive = flat curves in the ratio and both channels; the % refers to the ratio; further: on the % scale 0 is the no-effect control and ±100 the full control effect; nearly all actives have a fitted effect of over 50% in size; tested in ME-180 cells; beta-lactamase reporter
Prx2 Sm inh – blocks S. mansoni peroxiredoxin 2 enzymatic activity; S. mansoni Prx2 activity coupled to TGR/GSH (TGR is thioredoxin glutathione reductase), NADPH fluorescence loss, qHTS; some inactives read as strong as hits; 0.07% of 65,000 active; Potency, µM; active means full or partial inhibition curve with a strong effect at the top dose; inconclusive means weaker partial or single-point curve; inactive means no accepted curve; further: series up to 57 µM; many of its hits are not listed in these tables
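Coupled assay in which S. mansoni TGR passes NADPH reducing equivalents via glutathione to Prx2, which reduces H2O2. Compounds were preincubated 15 min at room temperature with 25 nM TGR/50 nM Prx2 mix. Kinetic NADPH fluorescence loss (ex 365/em 450 nm) was monitored.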
* = called active by the depositor; ? = inconclusive; / = not tested or not shown; & = joins results of further samples; [ ] = dose if it differs, or a comment. Potency means the concentration at half of the fitted maximal effect.

Fields: LT uptake inh, Prx2 Sm inh
- CCOC(=O)c1cnc(-n2nc(C)cc2C)nc1N(CC)CC
  -4.4%, ?
- COc1ccc(NC(=O)c2ccco2)c(NC(=O)Cc2cccs2)c1
  -2.6%, ?
- Cc1ccc(S(=O)(=O)NC(=O)Nc2cc(C)ccc2F)cc1
  -8.2%, /
- COc1ccc(C(=O)N2CCC3(CC2)CN(Cc2ccc(C#N)cc2)C3)cc1
  -4.4%, >57
- O=C(c1cc2nc3c(c(C(F)(F)F)n2n1)CCc1ccccc1-3)N1CCN2CCCC2C1 (configuration not stated)
  19.6%, >57
- Cn1c(=O)c(-c2cc(F)cc(F)c2)nc2cnc(Nc3ccccc3)nc21
  ?, >57
- CCOC(=O)c1c(C)n(Cc2ccco2)c2ccc(OC)cc12
  ?, >57
- CC(C)c1nnc(N2C(=O)c3oc4ccccc4c(=O)c3C2c2ccco2)s1 (configuration not stated)
  23.0%, >57
- COc1ccc(-n2c(Cn3nnc4ccccc43)nnc2SCC(=O)O)cc1
  3.2%, >57
- CCC(CC)C(=O)NCCc1cc2ccc(C)cc2[nH]c1=O
  7.4%, >57
- Cc1ccc(C)c(NC(=O)CSc2nnc(-c3ccccc3)o2)c1
  -11.4%, >57
- CCCCS(=O)(=O)c1sc2nc3c(cc2c1N)CCCC3
  ?, >57
- Cc1c(C(=O)OCC(=O)c2c(N)n(CC(C)C)c(=O)n(C)c2=O)oc2ccccc12
  -5.2%, >57
- Cc1ccc2nc3c(cc(C(=O)NCC4CCCO4)c(=N)n3CCCOC(C)C)c(=O)n2c1 (configuration not stated)
  ?, /
- COC(=O)c1cc(Br)c(=O)n(-c2ccc(C(C)=O)cc2)c1
  -1.5%, >57
- CN(C)CCOC(=O)C1(c2ccccc2)CCOCC1
  -7.3%, >57
- O=C(O)c1cnn(-c2ccccc2)c1-n1cccc1
  -8.4%, >57
- COC(=O)Nc1ccccc1C(=O)N1CCCCC1
  9.7%, >57
- CC(C)OCP(=O)(c1ccccc1)c1ccccc1
  15.0%, /
- CCOc1cc2c(cc1OCC)C(c1cc(OC)c(O)c(OC)c1)NCC2 (configuration not stated)
  5.7%, >57
- O=C(c1ccc2nc(N3CCCCC3)sc2c1)N1CCN(c2ccccn2)CC1
  0.4%, >57
- CCN1CCN(CC(=O)n2c3c(c4ccccc42)CC(C)CC3)CC1 (configuration not stated)
  -16.1%, >57
- COc1cc(CC(=O)Nc2nccs2)cc(OC)c1OC
  6.0%, >57
- COc1ccc(COC(=O)N/N=C2/C[C@@H](O)[C@@H](O)[C@@H]3[C@H]4C(=O)N(c5ccc(F)cc5F)C(=O)[C@@H]4CC[C@@H]23)cc1
  -5.4%[0.32 µM], /
- CC(C)[C@@H](CC(=O)N[C@@H]1CCCC[C@H]1C(=O)N[C@H](CC(=O)N[C@@H](CCC(=O)O)CC(=O)O)Cc1ccccc1)NC(=O)C[C@H](Cc1ccccc1)NC(=O)[C@@H]1CCCC[C@H]1N
  -11.7%, >57
- COCC(=O)N1CCC2(CC1)CN(Cc1ccccc1OC)C2
  -11.8%, >57
- Cc1cccc([C@H](C)c2cnc[nH]2)c1C
  ?, >57
- COc1ccc(OCCCC(=O)Nc2ccc3c(c2)OCCO3)cc1
  -12.3%, >57
- CN1CCN(c2nc3ccccc3c(=O)n2-c2ccccc2)CC1
  3.3%, >57
- CC12CCC(=O)N1C(C(=O)Nc1cccc3ccccc13)CS2 (configuration not stated)
  -7.7%, >57

Single records, as listed above:
Entry for `CC(C)[C@@H](CC(=O)N[C@@H]1CCCC[C@H]1C(=O)N[C@H](CC(=O)N[C@@H](CCC(=O)O)CC(=O)O)Cc1ccccc1)NC(=O)C[C@H](Cc1ccccc1)NC(=O)[C@@H]1CCCC[C@H]1N` : LT uptake inh: -11.7%; Prx2 Sm inh: >57
Entry for `COc1cc(CC(=O)Nc2nccs2)cc(OC)c1OC` : LT uptake inh: 6.0%; Prx2 Sm inh: >57
Entry for `O=C(O)c1cnn(-c2ccccc2)c1-n1cccc1` : LT uptake inh: -8.4%; Prx2 Sm inh: >57

The main list resumes; the two compounds before the break are reprinted first.
Fields: LT uptake inh, Prx2 Sm inh
- CN1CCN(c2nc3ccccc3c(=O)n2-c2ccccc2)CC1
  3.3%, >57
- CC12CCC(=O)N1C(C(=O)Nc1cccc3ccccc13)CS2 (configuration not stated)
  -7.7%, >57
- O=C(CSc1ccc2nnc(-c3ccncc3)n2n1)Nc1ccccc1F
  13.3%, >57
- COC(=O)c1cc2occc2n1CC(=O)Nc1ccc(OC)c(OC)c1OC
  0.0%, >57
- C=C(C)[C@@H]1CC=C(C(=O)O)CC1
  -1.7%, >57
- CC(=O)c1ccc(OCc2ccccc2)c(C)c1O
  -17.0%[8 µM], /
- N[C@H](CCCCCP(=O)(O)O)C(=O)O
  -9.8%&-7.1%&-1.7%&-17.3%, >57&>57&>57&>57
- N#Cc1nc(COc2ccc(-c3ccccc3)cc2)oc1NCc1cccnc1
  -9.6%, >57
- COc1ccc(N2CCN(C(=O)COc3ccccc3)CC2)cc1
  -3.1%, /
- N#CC1=C(N)Oc2cc(O)ccc2C1c1ccccc1 (configuration not stated)
  -8.9%, /
- O=C(NC1CCCCC1)C(c1ccccc1)N1CCCC1 (configuration not stated)
  -10.5%, >57
- COc1ccccc1NC(=O)c1ccccc1SC
  -14.0%, >57
- Cc1ccc(-c2nnc(CSc3nnc(C)s3)o2)cc1
  -9.1%, >57
- CC[C@@H](c1ccccc1)n1c(=O)n2n(c1=O)[C@H]1[C@H](O)[C@H]3O[C@@H]3/C(=N/OCC(C)C)[C@@H]1CC2
  -11.6%[8 µM], /
- C=CCn1c(C)cc(C(=O)COC(=O)COc2ccccc2C#N)c1C
  8.7%, >57
- N#Cc1nc(-c2ccc(OCc3ccccc3Cl)cc2)oc1NCCCn1ccnc1
  /, >57
- CCC(=O)Nc1cc(NC(=O)CSc2ncc(-c3ccc(F)cc3)n2Cc2ccco2)ccc1C
  -8.4%, >57
- CCOC(=O)c1ccc2[nH]c(C)cc(=O)c2c1
  18.6%, /
- CC(=O)Cc1nsc(NC(=O)c2ccc(Br)o2)n1
  -14.0%, >57
- CN(C(=O)COc1nnc(-c2cccs2)c(-c2cccs2)n1)c1ccccc1
  ?, >57
- COc1ccc(CNC(=O)C2CCCN(S(=O)(=O)c3cc(C)ccc3OC)C2)cc1 (configuration not stated)
  8.3%, >57
- COc1ccc(CCNC(=O)CSc2nnc(CNC(=O)c3cccs3)o2)cc1OC
  -2.1%, >57
- Clc1ccc2c(c1)N=C(N1CCNCC1)c1ccccc1N2
  ?, >57
- Cc1ccnc(NC2c3ccccc3C(=O)N2Cc2ccccc2Cl)c1 (configuration not stated)
  -5.8%, >57
- CC1=CC(C)C(COC(N)=O)(COC(N)=O)C(C)C1 (configuration not stated)
  /, >57
- CCOC(=O)C1CCN(C(=O)c2ccc(OCC)c(OCC)c2)CC1
  4.6%, >57
- O=C(c1ccco1)N1CCN(C(=O)c2snc3ccc(Cl)cc23)CC1
  24.7%, >57
- CCN1C(=O)c2ccccc2S(=O)(=O)c2ccc(C(=O)NCc3cccnc3)cc21
  13.5%, >57
- CCc1cccc(NC(=O)CN(c2ccc(OC)cc2)S(=O)(=O)c2c(C)n[nH]c2C)c1
  -9.9%, >57
- CC(C)OC(=O)c1ccc(N2C(=O)C3CC=CCC3C2=O)cc1 (configuration not stated)
  -2.6%, >57
- Cc1nn(-c2ccccc2)c2c1CC1(C(=O)N(C)C(=O)N(C)C1=O)C1CCCCN21 (configuration not stated)
  -12.1%, >57
- Cc1c(NC(=O)CSc2nc3ccccc3n2C)c(=O)n(-c2ccccc2)n1C
  -1.3%, >57
- Clc1ccc(CCNc2ncnc3nc[nH]c23)cc1
  ?, >57
- CCN1CCN(Cc2c(O)c(Cl)cc3c(C)cc(=O)oc23)CC1
  ?, /
- CCN1C(=O)[C@H]2[C@H]3[C@H](O)[C@H](O)C/C(=N/OC[C@@H]4O[C@H](c5ccccc5)C=C[C@@H]4Oc4ccc(OC)cc4)[C@@H]3CC[C@@H]2C1=O
  -5.2%[8 µM], /
- COc1ccc(Nc2ncnc3c2cnn3-c2ccccc2)cc1OC
  ?, >57
- Cc1cc2ncn(C3CC(=O)N(Cc4ccccc4)C3=O)c2cc1C (configuration not stated)
  9.8%, /
- O=C(Nc1ccc(N2CCOCC2)c(Cl)c1)c1cccc(F)c1
  ?, >57
- COC(=O)C1CCN(Cc2cc(=O)oc3cc(OC)ccc23)CC1
  -1.0%, >57
- Cc1ccc(-c2noc(-c3cccs3)n2)cc1
  -33.3%, >57
- Cc1cnc(NC(=O)CSc2nnc(Cc3ccccc3)n2C)s1
  15.3%, >57
- CCOC(=O)C1(C(F)(F)F)N=C(N(C)C)OC(N(C)C)=N1
  -2.0%, >57
- COc1cc(C(=O)OCC(=O)NC2CCCC2)cc(NC(=O)c2ccco2)c1OC
  -20.6%, >57
- O=C(CC1SC2=NCCN2C1=O)Nc1ccc(Cl)cc1 (configuration not stated)
  -0.5%, >57
- CCOC(=O)c1[nH]c2cc3c(cc2c1CCCN1C(=O)c2ccccc2C1=O)OCCO3
  3.7%, >57
- COc1cc2cc(C)c3nnc(SCC(N)=O)n3c2cc1OC
  -8.3%, >57
- CCCSc1nc2c(cnn2-c2ccc(C)cc2)c(=O)[nH]1
  6.3%, >57
- CCOc1ccc(Cc2nc(C)c(CC(=O)N3CCCCC3)c(=O)[nH]2)cc1
  -4.5%, >57
- CN1C(=O)C(O)(C2COC(C)(C)CC2=O)c2ccccc21 (configuration not stated)
  -5.7%, /
- CCCCn1c(SCC(=O)Nc2ccc3c(c2)OCO3)nc2c1c(=O)n(C)c(=O)n2C
  7.1%, >57
- COc1ccc2[nH]cc(CCNc3ccnc(-c4ccc5c(c4)OCO5)n3)c2c1
  ?, >57
- Cc1[nH]nc2c1C1(CCN(C(=O)c3ccccc3)CC1)C(C#N)=C(N)O2
  3.3%, >57
- Cn1c(NCc2ccco2)nc2c1c(=O)n(Cc1ccc(Br)cc1)c(=O)n2C
  -1.0%, >57
- CCCCc1nc2ccccc2c(=O)n1NC(=O)c1c(O)c2c(n(CC(C)C)c1=O)CCCC2
  -19.6%, >57
- COC(=O)N1CCC2(CCN(C(=O)Nc3cccc(F)c3)CC2)CC1
  -22.2%, >11.4
- Cc1cc(C)n(-c2nnc3n2N=C(c2c[nH]c4ccccc24)CS3)n1
  /, >57
- CCCCn1cc(SCC(=O)O)c2ccccc21
  ?, /
- Cc1oc2cc(OCC(=O)O)ccc2c(=O)c1Oc1ccccc1
  -13.6%, >57
- CCN(CC)CCSc1nc(O)c(C(C)C)c(=O)[nH]1
  -12.2%, >57
- COc1cc2c3c(c1OC)-c1cc(O)ccc1CC3NCC2 (configuration not stated)
  7.9%, >57
- O=C(Cn1cc2c(n1)CCCCC2)NCCCN1CCOCC1
  1.5%, >57
- Cc1cc2c(=O)n(NC(N)=O)c(C)nc2s1
  10.3%, >57

Further compounds
Fields: LT uptake inh, Prx2 Sm inh
- O=C(C(c1ccccc1)c1ccccc1)N1CCN(Cc2ccncc2)CC1
  2.4%, /
- Cc1nnc(SCC(=O)N2CCN(S(=O)(=O)c3ccccc3)CC2)n1Cc1ccccc1
  -1.8%, >57
- COc1ccc(NC(=O)C23CCC(C)(C(=O)O2)C3(C)C)cc1 (configuration not stated)
  4.9%, >57
- O=C(Nc1cnn(C23CC4CC(CC(C4)C2)C3)c1)c1cnn2c(C(F)(F)F)cc(-c3ccco3)nc12
  2.5%, >57
- CC(=O)c1sc(NC(=O)CN2C(=O)CCC2=O)nc1C
  10.9%, >57
- CCCS(=O)(=O)NCCc1cc2ccc(OC)cc2[nH]c1=O
  17.1%, >57
- Cc1csc(NC(=O)CSc2nc(C)cs2)n1
  1.8%, >57
- Cc1cnc(-c2nnc(N(C)C(=O)c3cnccn3)s2)cn1
  -9.9%, >57
- O=C1Nc2ccccc2C(O)(C(=O)NCc2ccco2)N1c1ccccc1 (configuration not stated)
  -13.9%, >57
- CCc1ccccc1NC(=O)CSc1nnc([C@@H](N)Cc2ccccc2)o1
  1.1%, >57
- OC(COc1ccc(Cl)cc1)CN1C2=NCCCN2c2ccccc21 (configuration not stated)
  -8.4%, >57
- O=C(NC1CCCC1)C1CC1c1ccccc1 (configuration not stated)
  11.5%, >57
- C[C@H]1CC[C@H]2C(=O)N3[C@H](c4ccc(Br)cc4)[C@@H](C)CC[C@H]3C(=O)N2[C@@H]1c1ccc(Br)cc1
  -14.3%[8 µM], /
- COc1ccc(OC)c(C2C(C#N)=C(N)Oc3c2c(C)nn3-c2cccc(Cl)c2)c1 (configuration not stated)
  ?, >57
- O=C(COc1ccc(S(=O)(=O)N2CCCCC2)cc1)NCc1ccncc1
  -9.0%, /
- Cc1ccc(-c2nc3cc(C)ccc3o2)cc1
  -3.8%, /
- O=C1OCCC1S(=O)(=O)c1ccc2ccccc2c1 (configuration not stated)
  -12.0%, >57
- O=C(NCC1CCCO1)c1cc(-c2ccccc2)on1 (configuration not stated)
  8.8%, >57
- CCCCCN(C(=O)NC(=O)NC(C)CC)S(C)(=O)=O (configuration not stated)
  -3.6%, >57
- Cc1cc2c(c(=O)n1CCCn1ccnc1)C(c1ccco1)C(C#N)=C(N)O2 (configuration not stated)
  -0.8%, >57
- Cc1cccc(N(C)S(=O)(=O)c2cccc3nsnc23)c1
  -4.2%, >57

Source: PubChem BioAssay

This is a subset; count on the stated rates, not on these rows.
